Assay outcomes from PubChem BioAssay.
2A firefly: lowers the firefly signal of an FMDV 2A StopGo reporter | HEK cells with a luciferase reporter of 2A StopGo recoding | Potency, µM (series often up to 57.5 µM), inactives show at the highest dose signal change, negative = less light | 120,000 compounds, 0.23% hits | AID 1745856; active = well fitted falling curve with a large enough effect; inconclusive = small, poorly fitted or top-dose-only effect; inactive = no such curve, though single readings can be large or run the other way; further: nearly all actives have a fitted effect of over 60% in size; overnight with compound
StopGo RLuc: FMDV 2A StopGo reporter, Renilla signal | HEK cells with a luciferase reporter of 2A StopGo recoding | Potency, µM (titrated, usually from 57.5 µM), for inactives: top-dose signal change, negative = less light | 120,000 compounds, 0.32% hits; active means well fitted falling curve with a large enough effect; inconclusive means small, poorly fitted or top-dose-only effect; inactive means no such curve, though single readings can be large or run the other way; further: nearly all actives have a fitted effect of over 55% in size; overnight with compound
An asterisk follows results filed as active; ? = inconclusive; [ ] = another dose, or the depositor's remark. On the % scale 0 is the no-effect control and ±100 the full control effect; potency means the concentration at half of the fitted maximal effect. An excerpt (hit frequency here may not be typical).

Every second line gives: StopGo RLuc | 2A firefly
1) COc1cc(C2c3c(oc4cc(C)c(C)cc4c3=O)C(=O)N2CCCN2CCOCC2)ccc1O (centres undefined)
  -10% | -20%
2) CCc1cccc(NC(=O)c2cn3c4c(ccc(Cl)c4c2=O)OC(C)C3)c1 (centres undefined)
  -7% | -7%
3) COc1cccc(C(=O)c2c(N)c(-c3nc(-c4ccccc4)cs3)c3ccccn23)c1
  -3% | 0%
4) COCCn1c(=O)c2sccc2n(CC(=O)NC2CCCCC2)c1=O
  5% | 27%
5) CC(=O)C(C(=O)c1ccc(F)cc1)C1c2ccccc2Sc2ccccc21 (centres undefined)
  47%[activator] | 15%
6) CC(C)(C)C1CCCCC1NCc1cccc(C#N)c1 (centres undefined)
  4% | 0%
7) O=S(=O)(Nc1ccc(F)cc1F)c1ccc(Br)s1
  181%[activator] | -2%
8) Cc1cc2oc(=O)cc(CSc3nncn3C)c2cc1C(C)C
  15% | 5%
9) CC1CCN(c2ccc3nnc(CCC(=O)NC(C)CCc4ccco4)n3n2)CC1 (centres undefined)
  -3% | 4%
10) CC(CCc1ccccc1)NC(=O)CC1CCCC1 (centres undefined)
  8% | -1%
11) Cc1ccc(-n2ncc3c(N4CCC(Cc5ccccc5)CC4)ncnc32)cc1
  -11% | ?
12) CCc1nn2c(=O)cc(COc3ccc(/C=C(\C#N)C(=O)Nc4ccc(C)cc4)cc3)nc2s1
  -3% | -4%
13) COc1ccc(Cn2nnc3c(=O)[nH]c(C4CCCN(C(=O)c5ccccc5Cl)C4)nc32)cc1OC (centres undefined)
  14% | -5%
14) CCCc1cc(=O)oc2cc(OC(C)C(=O)NCc3ccccn3)ccc12 (centres undefined)
  -12% | -8%
15) COC(=O)c1c(-c2ccc(Cl)cc2)noc1N1CCN(c2cccc(C)c2C)CC1
  1% | -4%

(more compounds)
Every second line gives: StopGo RLuc | 2A firefly
16) Cc1cc(C)cc(OCCSc2nc(-c3cccs3)nc3cc(=O)[nH]n23)c1
  -2% | -9%
17) Cc1ccc(C(=O)N2CCC(C(=O)N3CCCCCC3)CC2)cc1S(=O)(=O)N1CCCCC1
  6% | -9%
18) Cc1[nH]c2ccccc2c1C(=O)COC(=O)C1CCC1
  -14% | -11%
19) COc1ccc(Cn2nccc2NC(=O)c2cc(=O)c3cc(Cl)ccc3o2)cc1
  6% | 11%
20) COc1ccc(NC(=O)C(C)n2cccn2)cc1OC(F)F (centres undefined)
  -10% | 3%
21) O=C(Cn1c(=O)n(-c2ccc(Cl)cc2)c(=O)c2sc3ccccc3c21)NC1CCCCC1
  -3% | -11%
22) CCOc1ccc(NC(=O)c2ccc3[nH]c(C)c(C)c3c2)cc1
  -5% | 32%[activator]
23) Cn1nc(C(=O)OCC(=O)Nc2ccc(S(=O)(=O)N3CCCCC3)cc2)c2ccccc2c1=O
  2% | -7%
24) C/C(=C/C(=O)C(F)(F)F)N1CCN(c2ccccn2)CC1
  -14% | -5%
25) Cc1ccc(CCNC(=O)CN2C(=O)COc3ccc(S(=O)(=O)N4CCCCCC4)cc32)cc1
  53%[activator] | -18%
26) CCn1c(SCc2ccc(F)cc2Cl)nnc1-c1nonc1NC(C)=O
  ? | -25%
27) CC(=O)N1CCC2(CC1)Oc1ccc(Br)cc1C1CC(c3ccncc3)=NN12 (centres undefined)
  0% | 85%[activator]
28) Cc1c(C)n(CCN(C)C)c2ccc(C(=O)OCCN(C)C)cc12
  8% | 5%[11.5 µM]
29) CN(Cc1cccs1)C(=O)CCc1c[nH]c2ccccc12
  247%[activator] | 139%[activator]
30) COc1cccc(-c2csc(-c3cc4cccc(OC)c4oc3=O)n2)c1
  -6% | -12%

New compounds follow.
Every second line gives: StopGo RLuc | 2A firefly
31) O=C1/C(=C/c2ccc(-c3ccc(F)cc3)o2)Cc2ccccc21
  23% | 234%[activator]
32) CCC1CCc2c(sc(NC(=O)COCC(=O)O)c2C(=O)NCc2ccc(C)cc2)C1 (centres undefined)
  32% | 22%
33) CCOC(=O)CCN(C)Cc1cccc(OC)c1OC
  5% | 2%
34) CC1CCc2c(-c3ccccc3O)nc3ccc4ccccc4c3c2C1 (centres undefined)
  2% | -7%
35) Cc1ccccc1-c1cc(=O)c2cc(NC(=O)c3ccncc3)ccc2o1
  19% | 36%[activator]
36) COc1cccc(C(Nc2ncc(C(F)(F)F)cc2Cl)c2nccn2C)c1 (centres undefined)
  -10%[1.06 µM] | ?
37) CCOC(=O)Cc1ccc(NC(=O)NC(C)c2c(-n3cccc3)sc(C)c2C)cc1 (centres undefined)
  7% | 18%
38) N#Cc1cc2c(nc1SCc1ccccc1Cl)CCCC2=O
  2% | 20%
39) Nc1c(C(=O)NC2CCCCC2)nnn1-c1ccccc1
  -4% | 150%[activator]
40) Cc1cccc(C(=O)Nc2sc(C)c(C)c2C#N)c1
  ? | 265%[activator]
41) CC(C)Oc1ccc(CNC(=O)c2cc3cccc4c3n2CC(C)S4)cc1 (centres undefined)
  -6% | -8%
42) Cc1cc2n(n1)CCC(=O)N2Cc1ccc(C(=O)NCc2cccs2)cc1
  19% | 5%
43) Cc1cccc(CN2CCN(S(=O)(=O)c3cnn(C)c3)CC2)c1
  -10% | -13%
44) CN(C)CCNc1oc(COc2ccc(Cl)cc2)nc1C#N
  -17% | -7%
45) Cc1ccccc1-c1nc2c3c(ncn2n1)Oc1cc(O)ccc1C3c1ccccc1 (centres undefined)
  13% | 4%

Other results.
Every second line gives: StopGo RLuc | 2A firefly
46) CC(NC(=O)C(C)(Cl)Cl)C12CC3CC(CC(C3)C1)C2 (centres undefined)
  6% | 0%
47) COc1ccc(NC(=O)CSc2ccc3nc(-c4ccccc4)cn3n2)c(OC)c1
  12% | 85%[activator]
48) COc1cccc(CNC(=O)C(C)n2nc(-c3ccccc3)c3ccccc32)c1OC (centres undefined)
  7% | -8%
49) COc1ccccc1C(=O)OCc1cc(=O)n2nc(C3CCCCC3)sc2n1
  -4% | 2%
50) O=C(Nc1cccc(Br)c1)c1cc2ccc(O)cc2oc1=O
  0% | 23%
51) COC(=O)[C@H](C(C)C)N1Cc2nnn(Cc3ccccc3)c2-c2cc(F)ccc2S1(=O)=O
  191%[activator] | 146%[activator]
52) Cc1cccc(NC(=O)CCn2cnnn2)c1
  2% | 8%
53) COC(=O)c1cccc(NC(=O)NCc2cccn2Cc2ccccc2)c1
  164%[activator] | 21%
54) Cc1cccc(-c2nc3cc(NC(=O)COc4ccccc4F)ccc3o2)c1
  21% | 196%[activator]
55) CCc1ccc(-c2cc(C(F)(F)F)on2)cc1S(=O)(=O)Nc1cc(OC)c(OC)c(OC)c1
  15% | ?
56) COc1cccc(CN2CCCN(Cc3ccc(F)cc3)S2(=O)=O)c1
  56%[activator] | -11%
57) CCCc1ccc(OC(=O)c2sc3ncn(Cc4cccc(F)c4)c(=O)c3c2C)cc1
  -7% | -4%
58) CCCCc1cc(=O)oc2cc(C)cc(OC(C)C(=O)O)c12 (centres undefined)
  16% | 20%
59) CCOc1ccc(S(=O)(=O)N2CCN(Cc3nc(-c4ccc(C(=O)NC)cc4)oc3C)CC2)cc1
  -5% | -3%
60) CCCc1cc(=O)oc2cc(C)c3c(C(C)(C)C)coc3c12
  -10% | -13%

By substructure: the entries above with an aryl thioether with sulfur outside any ring
Every second line gives: StopGo RLuc | 2A firefly
8) Cc1cc2oc(=O)cc(CSc3nncn3C)c2cc1C(C)C
  15% | 5%
16) Cc1cc(C)cc(OCCSc2nc(-c3cccs3)nc3cc(=O)[nH]n23)c1
  -2% | -9%
26) CCn1c(SCc2ccc(F)cc2Cl)nnc1-c1nonc1NC(C)=O
  ? | -25%
38) N#Cc1cc2c(nc1SCc1ccccc1Cl)CCCC2=O
  2% | 20%
47) COc1ccc(NC(=O)CSc2ccc3nc(-c4ccccc4)cn3n2)c(OC)c1
  12% | 85%[activator]

Later entries
Every second line gives: StopGo RLuc | 2A firefly
61) C(#Cc1ccccc1)CN1CCOCC1
  12% | 35%[activator]
62) CC(=O)Nc1ccc(-c2csc(NC3CC3)n2)c(F)c1
  39%[activator] | 91%[activator]
63) CC1(C)OC[C@@H]2O[C@@]3(C(=O)O)OC(C)(C)O[C@H]3[C@@H]2O1
  -10% | -21%
64) Cc1ccc(-c2nn(-c3ccccc3)c3c2cnc2ccccc23)cc1C
  9% | 9%
65) C/C(=N\OC(=O)c1cc(-c2ccc(C)c(C)c2)nc2ccccc12)c1ccc(C(C)(C)C)cc1
  5% | 0%
66) Cc1ccc(-n2ccn(CC(=O)NCCc3ccccc3)c(=O)c2=O)cc1C
  3% | 64%[activator]
67) CCCCN(CC)C(=O)CSc1nc2ccsc2c(=O)n1-c1ccccc1
  94%[activator] | 97%[activator]
68) O=C1CC(c2ccc(Cl)cc2Cl)c2c(n3c(nc4ccccc43)[nH]c2=O)N1 (centres undefined)
  -11% | -7%
69) CCc1ccccc1NC(=O)C1CCCN(c2nnc(-n3c(C)ccc3C)s2)C1 (centres undefined)
  1% | 32%[activator]
70) COc1ccccc1C(=O)Nc1nc(-c2ccccc2)ns1
  -6% | 178%[activator]
71) COc1ccc(CCN2CCC(CNC(=O)c3cnn(-c4cccc(Cl)c4)c3C3CCN(C(=O)OC(C)(C)C)CC3)CC2)cc1
  6% | -20%
72) O=C(Nc1oc2ccccc2c(=O)c1-c1ccc2c(c1)OCO2)c1ccc(F)cc1
  15% | 128%[activator]
73) O=S(=O)(c1ccccc1)c1nc(-c2ccco2)oc1SCc1ccc(F)cc1
  23% | -2%
74) Cc1cccc(-c2[nH]ncc2C=O)c1
  34%[activator] | 7%
75) CCN(CCCNC(=O)c1c(C)oc2ncn(CC(C)C)c(=O)c12)Cc1ccccc1
  -8% | -10%

Quoted from the listing for reference:
Every second line gives: StopGo RLuc | 2A firefly
61) C(#Cc1ccccc1)CN1CCOCC1
  12% | 35%[activator]
62) CC(=O)Nc1ccc(-c2csc(NC3CC3)n2)c(F)c1
  39%[activator] | 91%[activator]
63) CC1(C)OC[C@@H]2O[C@@]3(C(=O)O)OC(C)(C)O[C@H]3[C@@H]2O1
  -10% | -21%
64) Cc1ccc(-c2nn(-c3ccccc3)c3c2cnc2ccccc23)cc1C
  9% | 9%

Going on with the list.
Every second line gives: StopGo RLuc | 2A firefly
76) Cc1ccc(-c2cc(C(=O)Nc3cc(C)on3)c3ccccc3n2)c(C)c1
  19% | 49%[activator]
77) CCn1nc(C(=O)OCC(=O)Nc2nc(-c3ccc(C)c(C)c3)cs2)c2ccccc2c1=O
  4% | 218%[activator]
78) Cc1nc2ccc3[nH]c(C)c(C)c3c2s1
  9% | 115%[activator]
79) Cc1ccc2nc(C)c(C(=O)N3CCN(c4ccccc4F)CC3)cc2c1
  11% | 18%
80) CCOc1cc(CNCc2ccco2)ccc1OCc1ccccc1
  ? | -22%
81) CC(C)c1cc(C(=O)Nc2cccc(C(F)(F)F)c2)nn1C1CCS(=O)(=O)C1 (centres undefined)
  17% | 13%
82) CN(c1ccccc1)S(=O)(=O)c1cc(C(=O)Nc2nnc(C3CC3)s2)ccc1Cl
  -1% | -3%
83) CCN1C(=O)c2ccccc2S(=O)c2ccc(C(=O)N3CCN(c4cccc(Cl)c4)CC3)cc21 (centres undefined)
  6% | 5%
84) C=CC[N+]1(CC#Cc2ccccc2)CCOCC1
  -2%[1.06 µM] | 0%
85) CCC(C(=O)Nc1ccccc1)n1nc(-c2cc(C)ccc2C)ccc1=O (centres undefined)
  51%[activator] | 10%
86) CN1CCN(S(=O)(=O)c2cc3cc(F)ccc3oc2=O)CC1
  -10% | -2%
87) CCOCCCn1c(SCC(=O)Nc2ccc(C)cc2)nc2ccccc2c1=O
  32%[activator] | 2%
88) CCN(CC)CCCNC(=O)c1cnc(SC)nc1-c1ccccc1
  ? | -17%
89) COc1ccc(OC)c(NC(=O)C(C)OC(=O)c2cccnc2)c1 (centres undefined)
  12% | 40%[activator]
90) CN(CCCNC(=O)c1ccc2n[nH]nc2c1)Cc1ccccc1
  0% | 13%

The results go on:
Every second line gives: StopGo RLuc | 2A firefly
91) CC(=O)N1CCc2cc(C(=O)C(C)n3nnc(-c4cccc(C(F)(F)F)c4)n3)ccc21 (centres undefined)
  -5% | -1%
92) CCOc1ccccc1Nc1nc2ccccc2nc1NS(=O)(=O)c1ccc(C)cc1
  15% | -3%
93) COc1ccc(NC(=O)C(C)n2nc(-c3cc(C)ccc3C)c3c(c2=O)CCCC3)cc1 (centres undefined)
  -7% | -19%
94) CCOc1ccc(C2C=C(c3ccc(OC)cc3)Nc3ncnn32)cc1 (centres undefined)
  5% | 0%
95) CCOc1ccccc1NS(=O)(=O)c1cc2[nH]c(=O)c(=O)[nH]c2cc1C
  -19% | -10%
96) Cc1ccccc1OCC(=O)Nc1ccc(C(=O)OCc2cc(=O)n3c(C)csc3n2)cc1
  41%[activator] | 20%
97) CCOC(=O)Cn1c(=O)n(C2CCCCC2)c2nc(-c3ccc(OC)cc3)nc(C(N)=O)c21
  -17% | -25%
98) Cc1cc(N2CCN(c3cccc(C)c3C)CC2)n2nc(C)c(-c3ccc(Cl)cc3)c2n1
  -9% | -3%
99) CCOc1ccc(CCNC(=O)c2cnc3sc(N4CCC(C)CC4)nn3c2=O)cc1
  -9% | -15%
100) CC(C)Oc1ccc(/C(O)=C2\C(=O)C(=O)N(c3nccs3)C2c2ccc(C(C)C)cc2)cc1 (centres undefined)
  -5% | 199%[activator]
101) CCOC(=O)c1c(C)c(-c2ccccc2)n(CC(=O)NCc2ccccc2)c1C
  -4% | -18%
102) CCOc1ccccc1NC(=O)C1CC(=O)Nc2nc3ccccc3n21 (centres undefined)
  -22% | -26%
103) C=CCn1c(SCc2ccc(F)cc2)nc2c1c(=O)[nH]c(=O)n2C
  -16% | -6%
104) CCCNC(=O)C(C)S(=O)(=O)Cc1cc(Cl)c2c(c1)OCO2 (centres undefined)
  -15% | 1%
105) COc1cccc(NC(=O)/C=N/O)c1
  -1% | 66%[activator]
